Bioassay records (PubChem BioAssay)
H5N1 CPE: MDCK cell protection from H5N1 avian flu; cytopathic effect, luminescence, 72 h; stronger effect = higher value; no value below 0 was filed and about half of the inactive calls have no number; reference of the scale not given here; inhibition, % at 50 µM; 96,000 tested, 0.07% active; AID 740; in the data active = inhibition above about 25%
An asterisk follows results filed as active; i = inactive. These rows are one share of the data; the hit share may differ from the screen's.

SMILES | H5N1 CPE
COc1ccc(-c2cc(C(F)(F)F)nc(S(=O)(=O)CCC(=O)N3CCOCC3)n2)cc1 | 6.8
COc1cc(C(=O)NCCCN2CCCC2=O)cc(OC)c1OC | 0.5
Cn1c(=O)cc(OCCCC(=O)NCCCN2CCN(Cc3ccccc3)CC2)c2ccccc21 | 1.5
CCOc1ccccc1NC(=O)N1CCC(n2nnc3cc(C)ccc32)CC1 | i
Cc1c(-c2cccs2)[n+](=O)c2c(n1[O-])CCCCC2 | 0.8
CC1CN(C(=O)c2ccncc2)CC(C)O1 (stereo unspecified) | i
COc1ccc(CN2CCCC2C(=O)Nc2ccc(OC)c(OC)c2)cc1OC (stereo unspecified) | i
Cc1ccc(C(=O)NNC(=O)C2CCN(Cc3ccc(Cl)c(Cl)c3)CC2)cc1 | 0.3
O=C1NC(c2cn(-c3ccccc3)nc2-c2cccs2)C(C(=O)c2cccnc2)C(O)(C(F)(F)F)N1 (stereo unspecified) | i
c1cn2cc(-c3ccc4c(c3)OCO4)nc2s1 | i
Cc1ccccc1NC(=O)/C=C/c1cccc(C(F)(F)F)c1 | 6.9
O=C(NC1CCCCCCC1)c1ccc(S(=O)(=O)N2CCCC2)cc1 | i
CCOC(=O)c1oc2ccc(OC)cc2c1NC(=O)CN1CCN(C)CC1 | i
CCn1c(SCC(=O)Nc2nc3ccccc3s2)nnc1-c1ccc(Br)cc1 | 2.2
O=C(NNS(=O)(=O)c1ccc([N+](=O)[O-])cc1)c1cnn(-c2ccccc2)c1-n1cccc1 | 0.6
CCCc1cc(=O)n2[nH]c(-c3ccco3)nc2n1 | i
CS(=O)(=O)N(CC(=O)NCCSCc1c(F)cccc1Cl)c1ccc2c(c1)OCO2 | i
CCOC(=O)CCc1c(C)n(CC)c2cc(-c3ccccc3OC)nn2c1=O | 0.7
Cc1cc(NC(=O)CSc2nnc(-c3cccnc3)n2C2CCCCC2C)no1 (stereo unspecified) | 0.5
Cc1ccn(S(=O)(=O)c2ccc(C(C)(C)C)cc2)n1 | 2.5
COc1ccc(Cl)cc1NC(=O)CSc1nnc(-c2ccncc2)n1CC1CCCO1 (stereo unspecified) | 0.8
O=C(NC12CC3CC(CC(C3)C1)C2)c1cncc(O)c1 | 0.7
COCCn1nnnc1C(c1cc2c(C)cc(C)cc2[nH]c1=O)N1CCCCCC1 (stereo unspecified) | i
COc1ccc2nc(NCCO)[nH]c2c1 | i
CSCC[C@H](NC(=O)OC(C)(C)C)c1nnc(SCc2cccc(F)c2)o1 | 0.7
CCN(CC)S(=O)(=O)c1cccc(C(=O)Nc2cccc(C)c2)c1 | 0.1
CC(=O)C1=C(C)NC(=O)NC1c1ccccc1OCC(=O)NCCc1ccccc1 (stereo unspecified) | i
O=C(Cc1sc(-c2ccccc2)nc1-c1ccccc1)Nc1ccc(Cl)cc1 | i
Cc1nc2cc(C(F)(F)F)ccc2n1C1CCN(Cc2nnnn2Cc2ccc3c(c2)OCO3)CC1 | i
O=C(Nc1ccccc1-c1nnn(CC(=O)N2CCCc3ccccc32)n1)c1ccco1 | 0.8

Next section, overlapping the part above by three compounds.
SMILES | H5N1 CPE
O=C(Cc1sc(-c2ccccc2)nc1-c1ccccc1)Nc1ccc(Cl)cc1 | i
Cc1nc2cc(C(F)(F)F)ccc2n1C1CCN(Cc2nnnn2Cc2ccc3c(c2)OCO3)CC1 | i
O=C(Nc1ccccc1-c1nnn(CC(=O)N2CCCc3ccccc32)n1)c1ccco1 | 0.8
CC(C)(C)C(=O)[C@@H]1[C@@H]2C(=O)N(c3ccc4c(c3)OCCO4)C(=O)[C@@H]2C2c3ccccc3C=CN21 (stereo partly specified) | i
CCc1ccc(C(=O)CSc2nc3ccccc3c(=O)[nH]2)cc1 | i
COC(=O)C(C)n1cnc2c(nnn2Cc2ccc(Cl)cc2)c1=O (stereo unspecified) | i
C=CCOc1cccc(C2/C(=C(/O)c3ccc(F)cc3)C(=O)C(=O)N2CCN2CCOCC2)c1 (stereo unspecified) | i
COC(=O)c1ccc(NC(=O)CCN2CCCCC2)cc1 | 0.7
Cc1sc(NC(=O)C(C)C)c(C(=O)Nc2ccccc2)c1C | i
COc1ccc(N2CCN(C(=O)CSc3nnc4n3C(C)(C)Cc3ccccc3-4)CC2)cc1 | 1.6
Cc1ccc(S(=O)(=O)C2(C(=O)Nc3cccc(F)c3)CC2)cc1 | 0.2
COc1ccc(NC(=S)N/N=C2/CCCc3c(C)cc(C)cc32)cc1 | 0.2
CCOc1ccc(OCC)c(-c2c(=O)n(OCc3ccccc3Br)c3ccccc3[n+]2[O-])c1 | i

Two compounds picked at random from the list so far, as already listed:
SMILES | H5N1 CPE
COc1ccc(N2CCN(C(=O)CSc3nnc4n3C(C)(C)Cc3ccccc3-4)CC2)cc1 | 1.6
CCc1ccc(C(=O)CSc2nc3ccccc3c(=O)[nH]2)cc1 | i

Next section:
SMILES | H5N1 CPE
Cc1cc(-n2ccnc2)n2c(nc3ccccc32)c1C#N | 0.2
O=C(Nc1nccs1)c1ccc(COc2ccccc2Br)o1 | i
Cc1cc(OCC(F)(F)C(F)(F)C(F)(F)C(F)(F)C(F)(F)C(F)F)nc(N)n1 | 1.8
Cc1cc(C)c(-c2noc(C(=O)OC(C)(C)C)c2C(=O)OC(C)(C)C)c(C)c1 | 0.7
Cc1nc2nc(-c3cccnc3)[nH]n2c(=O)c1C | 1.0
CCSCCOC(=O)C1=C(C)NC2=C(C(=O)CCC2)C1c1coc2ccccc2c1=O (stereo unspecified) | i
CC1=NN(c2ccccc2)C(=O)C1/C=C1/C(=O)NC(=O)N(c2cccc(C)c2)C1=O (stereo unspecified) | i
Cc1ccsc1/C=C/c1ccc2cccc(O)c2n1 | 0.7
Cc1cc(SCC(=O)N/N=C/c2ccc(O)c(O)c2O)c(C)cc1Br | i
CCCC(=O)NC(C)c1nc2ccccc2n1C(C)C (stereo unspecified) | 0.3
CCOC(=O)C1=C(C)NC(=O)C(C(N)=O)C12CCCCC2 (stereo unspecified) | i
COCCn1c(C)cc(C2=NNC(=Nc3ccc(F)cc3)SC2)c1C | i
CCOC(=O)C1CCCN(c2cc(=O)n(-c3ccccc3Cl)c(=O)[nH]2)C1 (stereo unspecified) | i
COc1ccc(S(=O)(=O)Nc2ccc(N(C)C(C)=O)cc2)cc1 | i
O=C(Cc1ccccc1)Nc1nc(=O)c2ccccc2s1 | i
CCSc1n[nH]c(=O)[nH]c1=O | i
Cc1ccc2nc(-c3ccc4c(c3)OCCO4)cc(C(=O)O)c2c1 | 1.5
CCOC(=O)c1sc2nc(SCC#N)n(CCCN3CCCC3=O)c(=O)c2c1C | 12.8
CCN1CCN(C(=O)CN(CCc2ccccc2)S(C)(=O)=O)CC1 | 0.5
CC(=NCc1cccnc1)c1c(O)n(-c2ccccc2C)c(=O)[nH]c1=O | 0.3
COC(=O)c1ccccc1COn1c(=O)c(C)[n+]([O-])c2ccccc21 | 1.1
Cc1cccc(OCCCSc2nc3ccc(C)cc3[nH]2)c1 | i
O=C(CSc1nc2ccsc2c(=O)n1NC(=O)c1ccccc1)NCc1ccco1 | 1.6
CC(C)(C)N(NC(=O)c1ccccc1)C(=O)c1cccc(C(=O)N(NC(=O)c2ccccc2)C(C)(C)C)c1 | i
Cc1ccc(OCC(O)Cn2c(=N)n(Cc3ccccc3)c3ccccc32)cc1 (stereo unspecified) | i
COc1cc(OC)nc(NC(=O)C(C)C)n1 | 0.4
CCN(CC)CCN1C(=O)C(O)=C(C(=O)c2cccs2)C1c1ccccn1 (stereo unspecified) | i
CCc1nc(SCC(N)=O)c2c(=O)n(C)c(=O)n(C)c2n1 | 1.0
Cc1c(Nc2nc3ccccc3nc2N2CCN(c3ccccc3)CC2)c(=O)n(-c2ccccc2)n1C | i
COc1ccccc1-c1noc(-c2ccco2)n1 | 1.0
O=C(NCc1ccc2c(c1)OCO2)c1ccc2c(c1)C(=O)N(CC1CCCO1)C2=O (stereo unspecified) | 0.1
CCC(C)(C)n1nnnc1C(c1ccc(N(C)C)cc1)N1CCN(C2CCCCC2)CC1 (stereo unspecified) | i
CC(C)N=C(NC#N)SCc1ccccc1 | i
Cc1ccc(S(=O)(=O)N2CCC(C(=O)N[C@@H](C)C(=O)NC3CCCCC3)CC2)cc1 | i
O=c1cc(CO)oc(CN2CCN(c3ccccc3)CC2)c1O | 1.9
CCN(CC)c1nc(-c2ccc(Cl)cc2)cc(C(F)(F)F)c1C#N | 0.0
Cc1ccc(S(=O)(=O)NCCC(=O)OCn2nnc3ccccc3c2=O)cc1 | 0.4
Cc1ccc(C2C(C#N)=C(N)Oc3n[nH]c(-c4cccs4)c32)s1 (stereo unspecified) | i
Cc1ccc(Nc2nc(=O)c3cccnc3s2)cc1 | i
COc1ccc(C)cc1NC(=O)C1CCC(CNc2c(N3CCOCC3)c(=O)c2=O)CC1 (stereo unspecified) | 0.1

In another format: results already given.
O=C(Cc1ccccc1)Nc1nc(=O)c2ccccc2s1
  H5N1 CPE = i

CCSc1n[nH]c(=O)[nH]c1=O
  H5N1 CPE = i

Following part
SMILES | H5N1 CPE
O=C(Oc1ccc(-c2cnc3ccccc3n2)cc1)c1cccc([N+](=O)[O-])c1 | 2.7
COc1ccc(C(C(=O)NC2CCCC2)N(C(=O)c2snc(-c3ccc(F)cc3)c2N)c2cccc(F)c2)cc1 (stereo unspecified) | i
O=Nc1c(O)n(Cc2ccc(Cl)cc2)c2ccccc12 | 1.5
CCOc1ccc(C2SCC(=O)Nc3c2c(C)nn3C2CCOC(C)(C)C2)cc1 (stereo unspecified) | 0.7
C=CCOc1nc2c(c(=O)n(Cc3ccc(Cl)cc3)c(=O)n2C)n1C | i
CC(=O)c1c(N2CCN(C)CC2)[nH]c(-c2ccccc2)nc1=S | i
CCOc1ccc(C(=O)N2CCC(C(=O)c3ccc4c(c3)OCCO4)CC2)cc1 | i
O=C(NCC1CCCO1)c1ccc(CS(=O)(=O)c2c(Cl)cccc2Cl)o1 (stereo unspecified) | 2.1
COc1cccc(OCC(O)CN2C(C)CCCC2C)c1 (stereo unspecified) | 0.3
COc1cc2c(cc1OC)C(c1cc3cc(OC)c(OC)cc3[nH]c1=O)N(C(=O)C1CC1)CC2 (stereo unspecified) | 0.7

Three compounds out of the list, sorted by molecular weight, rising.
SMILES | H5N1 CPE
O=C(Oc1ccc(-c2cnc3ccccc3n2)cc1)c1cccc([N+](=O)[O-])c1 | 2.7
CCOc1ccc(C(=O)N2CCC(C(=O)c3ccc4c(c3)OCCO4)CC2)cc1 | i
COc1ccc(C(C(=O)NC2CCCC2)N(C(=O)c2snc(-c3ccc(F)cc3)c2N)c2cccc(F)c2)cc1 (stereo unspecified) | i

(more compounds)
SMILES | H5N1 CPE
Cc1nnc(N2CCCCC2)c2ccccc12 | i
O=C(O)c1ccccc1S(=O)(=O)c1ccccc1CO | i
CN(C)CCNC(=O)C(C(=O)c1ccc(F)cc1)n1ccccc1=O (stereo unspecified) | 0.2
CCOC(=O)c1[nH]c(C)c(C(=O)c2cc(F)ccc2F)c1C | i
CC(C)(C)c1ccc(S(=O)(=O)N2CCN(CCC#N)CC2)cc1 | 1.7
CC(C)NC(=O)CN1CCC(O)(c2ccccc2)CC1 | 0.1
O=C(c1cccs1)N(C(=O)c1cccs1)c1ccccn1 | 2.5
O=C(NCCN1CCCCC1)c1cc(OCC(F)(F)F)ccc1OCC(F)(F)F | i
CCCCn1c(=O)n(C)c(=O)c2c(C(F)(F)F)cc(-c3ccncc3)nc21 | 2.0
Cc1ccc(C)c(CN2C(=O)C3(OCCCO3)c3ccccc32)c1 | 0.2
COc1cccc(-c2nc(N3CCN(c4ccccc4)CC3)c3ccccc3n2)c1O | i
CCS(=O)(=O)n1nc(-c2ccccc2)cc1N | 0.4
CC12CC3(C)CC(C)(C1)CC(NC(=O)N1CCCC1)(C2)C3 | 1.0
CCN(CC)c1ccc(NC(=O)c2cnc3ccccn3c2=O)c(C)c1 | 4.1
OC(COc1ccc(Cl)c2ccccc12)CN1CCN(c2ccccn2)CC1 (stereo unspecified) | i
N#Cc1nc(-c2ccc(OCc3ccccc3)cc2)oc1NCCCn1ccnc1 | i
CCOC(=O)c1c(NC(=O)c2ccoc2C)sc(C)c1C | i
CCOc1cccc(OCCOCCN2CCCC2)c1 | i
COC(=O)C1CCN(C(=O)CSc2nnc(-c3ccncc3)o2)CC1 | i
Cc1c(NC(=O)OCCSc2nc(N(C)C)nc(N(C)C)n2)sc(=S)n1C | i
COCCN(CCOC)S(=O)(=O)c1ccc(C(=O)Nc2nc(-c3ccncc3)cs2)cc1 | 0.7
Clc1ccc(CSc2nc3ccncc3[nH]2)cc1 | 0.1
CSc1nnc(-c2ccco2)n1-c1ccccc1 | i
COc1ccc(C(=O)Nc2ccc(C(=O)OCC(=O)c3ccccc3)cc2)cc1 | 0.4
COc1cc(CNc2ccccc2Oc2cc(=O)n(C)c(=O)n2C)cc(OC)c1OC | i
CCCNS(=O)(=O)c1ccc2c(c1)CCCN2C(C)=O | 1.3
Cc1ccc(CSCC(=O)N/N=C/c2ccc(OCC(=O)Nc3ccc(C)cc3)cc2)cc1 | i
CC(C)Sc1nc2c(c(=O)n(C)c(=O)n2C)n1Cc1ccc(Cl)cc1 | 2.8
C=CCSC1=C(C#N)C(c2ccccc2)CC(=O)N1 (stereo unspecified) | 1.4
O=C(CCc1ccc(S(=O)(=O)N2CCOCC2)cc1)Nc1ccc2ccccc2c1 | i
COc1ccc(CN2C(=O)c3cccnc3C2Nc2ccc(C)cc2)cc1 (stereo unspecified) | 0.3
Cc1ccc(C(=O)NNC(=O)c2ccc(SCC3CCCO3)c([N+](=O)[O-])c2)cc1 (stereo unspecified) | i
CN(C)S(=O)(=O)c1ccc(S(=O)(=O)N2CCCC2)cc1 | i
Cc1c(C(=O)O)cnc2cc(-c3ccc(Cl)cc3)nn12 | 1.1
COc1ccc(CCCc2nnc(SCC(=O)Nc3ccc(C)c(C)c3)o2)cc1 | i
Cc1ccc(-c2csc3ncnc(Sc4nnc(CN5CCCCCC5=O)o4)c23)cc1 | i
CCc1nc2c(cnn2-c2ccc(Cl)cc2)c(=O)n1-c1ccc2c(c1)OCCO2 | 0.5
